KCNQ2 inh = KCNQ2 potassium channel inhibitors, primary screen, cell-based, CHO-K1, FluxOR thallium flux, B-score (AID 2156); 310,000 compounds, 1.1% hits; B-score at 10 µM; O88943; 20 min; hits give low values; only compounds with negative scores are shown here; some inactives read as strong as hits;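 active = fluorescence ratio B-score at most minus 3 library SDs, with starting brightness B-score within 2 library SDs, cut at about -5.5 in these data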
Target sequence (O88943 whole entry, looked up): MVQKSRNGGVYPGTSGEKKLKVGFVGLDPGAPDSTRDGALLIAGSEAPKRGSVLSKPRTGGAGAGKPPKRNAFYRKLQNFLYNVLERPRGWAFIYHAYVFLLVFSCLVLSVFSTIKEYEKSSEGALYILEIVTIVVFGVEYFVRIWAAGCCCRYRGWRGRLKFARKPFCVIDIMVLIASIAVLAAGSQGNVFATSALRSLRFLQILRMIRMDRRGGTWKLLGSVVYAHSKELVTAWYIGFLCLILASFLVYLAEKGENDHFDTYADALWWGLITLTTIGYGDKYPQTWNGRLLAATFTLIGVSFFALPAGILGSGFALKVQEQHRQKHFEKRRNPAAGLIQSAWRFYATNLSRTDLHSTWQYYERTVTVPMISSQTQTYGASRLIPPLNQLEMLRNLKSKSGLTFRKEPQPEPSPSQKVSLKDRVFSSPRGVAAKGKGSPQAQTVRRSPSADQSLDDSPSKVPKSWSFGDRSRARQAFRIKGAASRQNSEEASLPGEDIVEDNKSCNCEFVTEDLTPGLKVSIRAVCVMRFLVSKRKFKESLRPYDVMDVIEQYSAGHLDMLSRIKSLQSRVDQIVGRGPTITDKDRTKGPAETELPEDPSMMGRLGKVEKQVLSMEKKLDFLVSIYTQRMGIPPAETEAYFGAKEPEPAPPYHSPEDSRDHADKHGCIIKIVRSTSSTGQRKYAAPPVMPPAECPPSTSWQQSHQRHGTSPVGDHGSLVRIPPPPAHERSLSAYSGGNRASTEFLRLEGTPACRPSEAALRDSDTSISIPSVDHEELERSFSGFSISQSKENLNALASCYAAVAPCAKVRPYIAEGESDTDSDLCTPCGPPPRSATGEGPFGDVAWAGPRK
KCNQ2 inh baseline = second read-out of KCNQ2 inh, no call of its own (marks repeat the call); B-score; measured here: initial fluorescence intensity artifact check;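 brightness before thallium and not channel activity; 0 = typical well and far values either way flag optical interference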
* marks the source's active call; other numbers are inactive results; i = inactive. An excerpt; count on the stated rates, not on these rows.

SMILES | KCNQ2 inh | KCNQ2 inh baseline
COc1ccc(C(=O)N2CCN(C3CCCCC3)CC2)c(OC)c1 | i | 1.1
Cc1nc2c(sc3nc4c(cc32)COC(C)(C)C4)c(=O)n1CC(=O)NCc1ccco1 | i | -1.2
COc1ccccc1C(=O)Nc1c(-c2ccccc2)nc2ccccn12 | -7.3* | -0.01*
Cn1c(=NC(=O)CSCC(=O)N2CCCCC2)sc2ccccc21 | i | 1.5
COc1ccc(C(=O)Nc2nc(N3C(=O)c4ccccc4C3=O)n(-c3ccccc3)n2)cc1 | i | 0.22
CCOc1ccc(-n2c(-c3ccc(OC)cc3)c[n+]3c2CCCCC3)cc1 | i | 2.2
C/C=C/C=C\C(=O)Nc1cccc(C2=NOC3(C2)C[C@H](C(N)=O)N(C(=O)/C=C/C)C3)c1 (stereo partly specified) | i | 1
Cn1c(=O)[nH]c(=O)c2c1nc(N1CCCCC1)n2CCCSc1nc2ccccc2s1 | i | 0.55
CNC[C@@H](CC1CCCCC1)NC[C@H](CC(C)C)NCCc1cccc(C(F)(F)F)c1 | i | -2.8
Cn1c(SCC(=O)Nc2ccc(N3CCOCC3)c(Cl)c2)nnc1C(O)c1ccccc1 (stereo unspecified) | i | 1.2
Cc1c(NC(=O)CCC(=O)N2CCCCC2)c(=O)n(-c2ccccc2)n1C | i | 0.95
Cc1ccc(S(=O)(=O)N2CCN(Cc3nc4sc5c(c4c(=O)[nH]3)CCCC5)CC2)cc1 | i | 1.8
CN1CCC(=O)N(CCSc2ccccc2)CC1 | i | -0.46
O=C(COC(=O)c1ccc(Cl)cc1[N+](=O)[O-])NC(=O)c1ccccc1 | i | 0.4
O=C(O)CNC(=S)N(Cc1ccc(F)cc1)C1CCCCC1 | i | -0.02
COc1ccc2c(c1)cc1n2CCN=C1NN | i | 0.08
COc1ccccc1C(=O)NNC(=O)c1ccccc1Br | i | -3.1
O=C(CSc1nc2ncc(Cl)cc2[nH]1)NCC(=O)Nc1ccc(F)c(F)c1F | i | 0.67
Cc1noc(C)c1C(=O)N1CCN(C(=O)c2sc3cc(Cl)ccc3c2Cl)CC1 | i | -0.55
CCOC(=O)c1ccccc1NC(=O)Cn1cnc2c(oc3ccccc32)c1=O | i | -0.42
CCc1noc(C)c1C(=O)NCCc1ccc(F)cc1 | i | 0.09
CCN1CCc2nc(NC(=O)c3cc(F)c(F)cc3Cl)sc2C1 | i | 1.2
Cc1cc(C)n(-c2cc(N3CCN(S(=O)(=O)c4ccc(Cl)cc4)CC3)ccc2[N+](=O)[O-])n1 | i | -1.7
Cc1ccc(Cl)cc1N1CCN(C(=O)COc2ccc3c(c2)CCC3)CC1 | i | -0.63
COc1ccccc1NC(=O)c1nnn(Cc2ccccc2)c1NC(=O)C(F)(F)F | i | -1.6

Other entries
SMILES | KCNQ2 inh | KCNQ2 inh baseline
CN(C)/C=N/c1cnc(C(=O)c2ccc(Cl)cc2)n1C | i | -0.92
O=C(Nc1ccc(F)c(Cl)c1)Nn1cnnc1 | i | -1.1
S=C1NCCOCCOCCOCCOCCNC(=S)N2CCOCCOCCN1CCOCC2 | i | 1.7
Cn1cnc([N+](=O)[O-])c1Sc1ncccc1N | i | 1.4
CCN1CCN(C(=O)CCc2nnc(CCc3c[nH]c4ccccc34)o2)[C@@H](C)C1=O | i | 1.1
Cc1ccc2c(c1)c(CC(=O)Nc1ccc(F)cc1)c(C(=O)O)n2C | i | 0.09
COC(=O)CN=C1OC(=O)N2C(=O)C3=C4[C@@H](C[C@H]5C(=O)N(c6ccccc6)C(=O)[C@H]5[C@H]4[C@@]12Cc1ccccc1)[C@H]1C(=O)N(c2ccccc2)C(=O)[C@H]1[C@H]3C | i | 0.61
CCc1nn2c(=O)c(S(=O)(=O)Nc3ccc(Cl)cc3)c(C)nc2s1 | i | 0.87
CCCCCN(C(=O)CCC(=O)OCC(=O)NC1CCC(C)CC1)c1c(N)n(CCCC)c(=O)[nH]c1=O (stereo unspecified) | i | -0.01
Cc1nnc(NC(=O)c2ccccc2-c2ccccc2C(=O)O)s1 | i | 0.05
CN1CCC(N(C)C(=O)/C(C#N)=C/c2ccccc2)CC1 | i | 0.61
CCNc1nc(NC(C)C)nc(Oc2ccc(=O)n(C)n2)n1 | i | 1.3
O=C(O)c1ccc2c(c1)SC1=NS(=O)(=O)CCN12 | i | -0.06
O=C(OCc1ccccc1)N1CCc2ccccc21 | i | 1.1
CCc1c(C)sc(NC(=O)C2CC2)c1C(=O)OC(C)C | i | 1.7
CCOC(=O)Cc1csc(NC(=O)c2csc3c2CCCC3)n1 | i | 1.1
Cc1nc(NCCc2ccc(S(N)(=O)=O)cc2)c2c3c(sc2n1)CCC3 | i | 0.15
CSc1ccccc1C(=O)NC1CCCCCC1 | i | 0.28
Cc1nn(-c2ccccc2)c(N)c1Sc1cccc([N+](=O)[O-])c1 | i | -0.05
CN(C)c1ccc(NC(=O)/C=C/c2ccccc2Cl)cc1 | i | 0.66
CCc1c(O)nc(SCC(=O)Nc2nc3ccccc3s2)n(-c2ccccc2)c1=O | i | -2.8
CSCC(=O)N1CCC(Oc2cccc(C(=O)NCc3ccccn3)c2)CC1 | i | -0.91
COc1ccc(C2CC2C(=O)c2ccccn2)cc1 (stereo unspecified) | i | -0.26
Cc1cc(=O)oc(C)c1C(=O)n1nc(C)c2c1C[C@@H]1[C@H]2C1(C)C | i | -0.58
CCOc1cccc(C(=O)Nc2ccccc2N2CCN(C(=O)C(C)C)CC2)c1 | i | 0.01

More structures follow.
SMILES | KCNQ2 inh | KCNQ2 inh baseline
COc1ccc(CCNC(=O)c2ccc3nc(N4CCOCC4)sc3c2)cc1OC | i | -2
CCOC1OC(=O)C(Cl)=C1Nc1ccc(C)cc1C (stereo unspecified) | i | -0.25
CN(C)Cc1nc2c(c(=O)[nH]1)C1(CCCCC1)Cc1ccccc1-2 | i | 1.8
O=C(O)[C@@H]1CCCN1C(=O)COc1ccc2c3c(c(=O)oc2c1)CCC3 | i | 0.55
C=CCNc1nc(C(F)(F)F)nc2c1nnn2Cc1ccccc1Cl | i | 0.97
CN(C)C(=O)CSc1nnc([C@H](Cc2ccccc2)NC(=O)OC(C)(C)C)o1 | i | 0.32
Cc1ccc(C)c(NC(=O)C(Sc2cccc[n+]2[O-])c2ccccc2)c1 (stereo unspecified) | i | -0.93
CCn1nc(C(=O)OC(C(=O)c2c[nH]c3ccccc23)c2ccccc2)c2ccccc2c1=O (stereo unspecified) | -8* | 0.24*
COc1ccc(CNC(=O)C2CCCN(S(=O)(=O)c3ccccc3)C2)cc1 (stereo unspecified) | i | 0.84
Cc1nnc(SCC(=O)N2CCCC(C(=O)c3ccc(Cl)cc3)C2)o1 (stereo unspecified) | i | -0.65
CCOC(=O)C1CCCN(CC(=O)Nc2nccs2)C1 (stereo unspecified) | i | 1.4
CN1CC(=O)N(CC(=O)NCc2ccc3c(c2)OCO3)C1=O | i | 1.4
COc1ccccc1C(=O)C1CCCN(Cc2cn[nH]c2C2CCCCC2)C1 (stereo unspecified) | i | 0.27
Cc1ccc(Cl)cc1N1CCN(C(=O)c2ccc(CS(=O)Cc3ccc(Cl)cc3)o2)CC1 (stereo unspecified) | i | 2
Cc1cc(NC(=O)CSCC(=O)OCc2nnc(-c3ccccc3)o2)no1 | i | 1.1
CC(C)Oc1cccc(-c2cc(C(=O)N3CCN(S(C)(=O)=O)CC3)c3ccccc3n2)c1 | i | 0.64
Cc1ccnc(NC(=O)c2cccc(NC(=O)c3ccccc3C)c2)c1 | i | -0.18
COc1ccccc1N1CCN(C(=O)c2ccc(Cn3c(=O)[nH]c4ccsc4c3=O)cc2)CC1 | i | -0.05
CC(=O)c1ccc(C(=O)N(C)C2CCCN(Cc3ccccc3F)C2)s1 (stereo unspecified) | i | 1.4
O=C1CC(c2ccc(F)cc2)C2=C(CCCC2=O)N1 (stereo unspecified) | i | 1
CC(C)(C)OC(=O)N1CCC2(CC1)Oc1ccc(F)cc1C(=O)C21CC(c2cccnc2)=NO1 (stereo unspecified) | i | 0.74
Cc1cc(/C=C2/NC(=S)NC2=O)c(C)n1-c1cccnc1 | i | 0.01
CCCn1c(=O)c(C(=O)NCCc2ccc(Cl)cc2)c(O)c2ccccc21 | -5.6* | -0.3*
CCN(CC(=O)NC1CC1)S(=O)(=O)c1ccc(C)cc1 | i | -2.3
COc1ccccc1NS(=O)(=O)c1ccc2oc(SC)nc2c1 | i | 1

Further results follow.
SMILES | KCNQ2 inh | KCNQ2 inh baseline
O=C(/C=C/c1ccccc1[N+](=O)[O-])OC1CCCCC1=O (stereo unspecified) | i | 0.02
COc1ccccc1CNC(=O)CCNC(=O)N1CC(=O)Nc2ccccc21 | i | 0.53
Cc1ccc(NC(=O)C/C(N)=N/O)cc1C | i | -0.02
O=C(N/N=C/c1cccnc1)c1cc(O)c(O)c(O)c1 | i | 1.4
COC(=O)[C@H]1[C@@H](C)N(CCc2cc(OC)c(OC)c(OC)c2)C(=O)N[C@H]1c1ccccc1 | i | 0.68
CCCOc1ccc(NC(=O)c2c(-c3ccccc3)noc2C)cc1 | i | -0.66
CSc1ccccc1NC(=O)Cn1c(-c2cscn2)nc2ccccc21 | i | 1.4
Cc1cc(C)n(CCN(C)Cc2cn[nH]c2-c2ccc(F)cc2F)n1 | i | -0.06
Cn1c(=O)c(Oc2ccc(F)cc2)c(O)c2ccccc21 | i | -0.56
CC(=O)c1cc2c(cc1N/C(=N/S(=O)(=O)c1ccc(C)cc1)c1ccc(Cl)cc1)OCO2 | i | 0.05
O=C(CSc1nc2c(sc3ccccc32)c(=O)n1CCc1ccccc1)NCc1ccco1 | i | 0.04
CCc1ccc(NC(=O)C2CC=CCC2C(=O)O)cc1 (stereo unspecified) | i | 0.28
CCOC(=O)c1nn(-c2ccc(C)c(C)c2)c(=O)c(C#N)c1C | i | 0.31
O=C(NC12CC3CC(CC(C3)C1)C2)c1cc(F)c(F)c(F)c1F | i | 1.3
COc1ccc(C2C(C#N)=C(N)Oc3n[nH]c(C)c32)cc1Cn1nnc2ccccc21 (stereo unspecified) | i | 1.5
O=C(Nc1cccc(S(=O)(=O)N2CCCCCC2)c1)C1=COCCO1 | i | -0.07
Cn1c(C2=C(O)CN(Cc3ccccc3)C2=N)[n+](C)c2ccccc21 | i | 1.9
O=C(O)c1cc(N/N=C/c2cccnc2)ccc1Cl | i | 0.47
COc1nc(NC(=O)c2ccc(F)cc2)nc(OC)c1-c1ccccc1 | i | -0.1
CC(=O)Nc1ccc(S(=O)(=O)Oc2ccccc2N2CCCCC2)cc1 | i | 1.9
CCOC(=O)Cc1c(C)nc2c(-c3ccccc3)c[nH]n2c1=O | i | 0.38
COC(=O)C(COC(=O)c1c(F)cccc1F)NC(=O)c1c(F)cccc1F (stereo unspecified) | i | 0.71
Nc1nc(CSc2nnnn2-c2ccc(F)c(Cl)c2)nc(N2CCOCC2)n1 | i | 1.6
CCCc1cc(=O)oc2c(CN3CCCC3)c(O)c(Cl)cc12 | i | 2.7
Brc1ccc(-c2ccc(/C=N/Nc3nncc(-c4ccccc4)n3)o2)cc1 | i | -0.65

14 compounds out of the list, sorted by molecular weight, lowest first:
SMILES | KCNQ2 inh | KCNQ2 inh baseline
COc1ccc2c(c1)cc1n2CCN=C1NN | i | 0.08
O=C(O)c1cc(N/N=C/c2cccnc2)ccc1Cl | i | 0.47
CCN(CC(=O)NC1CC1)S(=O)(=O)c1ccc(C)cc1 | i | -2.3
CCOC(=O)c1nn(-c2ccc(C)c(C)c2)c(=O)c(C#N)c1C | i | 0.31
Cc1cc(=O)oc(C)c1C(=O)n1nc(C)c2c1C[C@@H]1[C@H]2C1(C)C | i | -0.58
C=CCNc1nc(C(F)(F)F)nc2c1nnn2Cc1ccccc1Cl | i | 0.97
CCN1CCN(C(=O)CCc2nnc(CCc3c[nH]c4ccccc34)o2)[C@@H](C)C1=O | i | 1.1
Brc1ccc(-c2ccc(/C=N/Nc3nncc(-c4ccccc4)n3)o2)cc1 | i | -0.65
Nc1nc(CSc2nnnn2-c2ccc(F)c(Cl)c2)nc(N2CCOCC2)n1 | i | 1.6
Cc1nc2c(sc3nc4c(cc32)COC(C)(C)C4)c(=O)n1CC(=O)NCc1ccco1 | i | -1.2
Cc1ccc(S(=O)(=O)N2CCN(Cc3nc4sc5c(c4c(=O)[nH]3)CCCC5)CC2)cc1 | i | 1.8
Cn1c(SCC(=O)Nc2ccc(N3CCOCC3)c(Cl)c2)nnc1C(O)c1ccccc1 (stereo unspecified) | i | 1.2
COc1ccccc1N1CCN(C(=O)c2ccc(Cn3c(=O)[nH]c4ccsc4c3=O)cc2)CC1 | i | -0.05
S=C1NCCOCCOCCOCCOCCNC(=S)N2CCOCCOCCN1CCOCC2 | i | 1.7

Next section.
SMILES | KCNQ2 inh | KCNQ2 inh baseline
CC(C)(C)C(=O)N1CCN(c2ccc([N+](=O)[O-])c(NCc3cccnc3)c2)CC1 | i | -0.79
O=C(O)c1ccccc1-c1nc(-c2ccccc2)c(-c2ccccc2)[nH]1 | i | -0.29
CNC(=S)N1CCN(c2nc3ccccc3s2)CC1 | i | 0.08
COc1ccc(N2CC(C(=O)Nc3nc4ccc(S(C)(=O)=O)cc4s3)CC2=O)cc1 (stereo unspecified) | i | 0.74
O=C(CN1C(=O)COc2ccc(Cl)cc21)NC1CC1 | i | -0.77
CC1(C)CC(=O)C(C=Nc2ccc(O)c(N=CC3=C(O)CC(C)(C)CC3=O)c2)=C(O)C1 | i | 0.13
O=C(COC(=O)c1ccc2c(c1)C(=O)N(Cc1ccncc1)C2=O)Nc1cccc2ccccc12 | i | 0.91
CC(NC(=O)c1cccnc1)C(c1cccs1)N1CCN(c2ccccc2F)CC1 (stereo unspecified) | i | -1.4
COc1ccc([C@@H]2[C@@H]3C(=O)N(C(C)(C)C)C(=O)[C@@H]3[C@]3(CC(C)C)C(=O)N(c4ccccc4)C(=O)N23)cc1 | i | 0.87
Cc1cnc(NC(=O)Cc2ccccc2Cl)s1 | i | 1.1
CN(C)C(=O)Cn1cnc2c(cnn2-c2ccc(F)cc2)c1=O | i | -0.93
CCN(CC)CCn1c(=N)n(CC(=O)c2ccc(Br)s2)c2ccccc21 | i | -1.2
O=S(=O)(c1cc(Cl)ccc1Cl)N1CCN2CCCC2C1 (stereo unspecified) | i | -0.08
COc1ccc(CCNC(=O)c2sc3cc(C)ccc3c2Cl)cc1 | i | 0.22
